Screening data deposited in PubChem BioAssay by ICCB-Longwood Screening Facility, Harvard Medical School.
Sa growth 42C: blocks Staphylococcus aureus growth; S. aureus RN4220 growth, OD600, 20 h, 42 °C; hits give low values; actives 0.53% (n = 170,000); relative growth, % (test concentration not listed);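 active means growth at 42 °C up to 50% and 20 or more points under that at 30 °C, or under 10% at both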;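 further: 300 nL library stock went into each well; scaled to the means of positive and negative controls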
HCMV NEC inh: inhibitors of HCMV UL50-UL53 nuclear egress complex interaction; inhibition, % (test concentration not listed); HTRF UL50-UL53 interaction, normalized percent inhibition; AID 1918969; actives 0.15% (n = 190,000);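 active means both replicates at 50% or more, plus weaker picks with an unusually low signal ratio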;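 further: stock transfer was 100 nL into about 20 µL; 0% = negative control wells and 100% = wells with untagged competitor protein; inactives centre near -12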
GIV Gai3 FP: GIV-Galpha-i interaction inhibition. percent of control (FP), % (concentration not given with the values). actives 0.42% (n = 210,000). AID 1224905. P08753. Galpha-i3/FITC-GIV peptide fluorescence polarization, 90 min; hits give low values; scaled: aluminum fluoride 0%, vehicle 100%;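 active means replicate mean at 85% of control or lower, very high polarization wells dropped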;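 further: wells of about 15 µL received 100 nL stock; the first replicate is given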
Target sequence (P08753 whole entry, looked up): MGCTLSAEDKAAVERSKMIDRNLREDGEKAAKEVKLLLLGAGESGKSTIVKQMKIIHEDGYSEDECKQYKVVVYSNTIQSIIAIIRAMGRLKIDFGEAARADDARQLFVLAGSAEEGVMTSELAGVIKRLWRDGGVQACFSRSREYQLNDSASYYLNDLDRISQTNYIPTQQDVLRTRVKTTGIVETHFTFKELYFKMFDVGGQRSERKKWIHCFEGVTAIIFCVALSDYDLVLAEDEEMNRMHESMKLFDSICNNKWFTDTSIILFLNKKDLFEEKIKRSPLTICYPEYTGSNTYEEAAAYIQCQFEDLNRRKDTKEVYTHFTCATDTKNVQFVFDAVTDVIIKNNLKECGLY
Sa growth 42C second temp: further read-out of Sa growth 42C, marked with its call; relative growth, %; measured here: growth at 30 °C;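 optical density after 20 h as mean of two plates; 100% = untreated growth and lower means inhibition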
* marks the source's active call; other numbers are inactive results; / = not tested or not shown; & = joins results of further samples.

The line under a structure holds: Sa growth 42C, GIV Gai3 FP, Sa growth 42C second temp, HCMV NEC inh
Cc1nn(CC(=O)NCc2cccc(Br)c2)c(=O)c2c1sc1ccccc12
    101, 104, 94, 8
CCCn1c(N)c(C(=O)CN(C)Cc2ccc(CC)cc2)c(=O)n(C)c1=O
    83, /, 91, 3
O=C(c1cccc2c1-c1ccccc1C2)N1CCOCC1
    116, 101, 84, -7
O=C(CN1CCC(N2CCCCC2)CC1)NC12CC3CC(CC(C3)C1)C2
    80, 96, 101, 8
Cc1nn(CC(C)C)c(Cl)c1CNCCC(=O)N1CCCC1
    104, /, 92, -8
CC(N)c1ccc(-c2ccccc2)cc1 (stereo unspecified)
    96, /, 85, 2
O=C(O)c1cn(-c2cccc(Cl)c2)c(=O)c2ccccc12
    /, 93, /, -14
CN(C)c1cc(Nc2ccc(Cl)cc2)c2c3c(onc13)-c1ccccc1C2=O
    104, 111, 74, -23
Cn1cc(Cl)c(C(=O)N2CCCC2c2ccc(F)cc2)n1 (stereo unspecified)
    /, 103, /, -13
COc1cc(OC)cc(C(=O)Nc2cc(-c3nc4ccccc4s3)ccc2OC)c1
    91, 104, 90, -21
Cc1cc(Cc2ccc(Cl)cc2)c(=O)[nH]n1
    104, 107, 101, -4
Cc1ccc(NC(=O)CN2CCSC2=O)cc1
    121, /, 96, 5
C/C(=N\O)c1ccc2c(c1)Cc1ccccc1-2
    124, 101, 60, 13
Cc1cc(NC(=O)Cn2c(=O)oc3cc(S(=O)(=O)N4CCCC4)ccc32)ccc1Br
    119, 105, 86, /
O=C(Cn1nc(-c2ccccc2)c2ccccc2c1=O)N1CCOCC1
    85, 98, 87, -14
O=C(OCC(F)(F)C(F)F)c1ccc2ccccc2c1
    102, 98, 97, -2
COc1ccc(CNC(=O)Cc2ccc(NC(=O)N3CCCCc4ccccc43)cc2)cc1
    103, 100, 94, /
N/C(=N\O)c1c(Cl)cccc1Cl
    94, /, 85, -16
CCc1ccc(S(=O)(=O)c2nnn3c2nc(N(C)Cc2ccccc2)c2cc(Cl)ccc23)cc1
    104, 95, 86, -14
CCN(CCCNC(=O)CCC(=O)N1Cc2cccc(OC)c2Oc2ncccc21)Cc1ccccc1
    /, 98, /, -26

Some of the entries so far, as tab-separated lines:
compound	Sa growth 42C	GIV Gai3 FP	Sa growth 42C second temp	HCMV NEC inh
CCCn1c(N)c(C(=O)CN(C)Cc2ccc(CC)cc2)c(=O)n(C)c1=O	83	/	91	3
O=C(c1cccc2c1-c1ccccc1C2)N1CCOCC1	116	101	84	-7
O=C(CN1CCC(N2CCCCC2)CC1)NC12CC3CC(CC(C3)C1)C2	80	96	101	8
Cc1nn(CC(C)C)c(Cl)c1CNCCC(=O)N1CCCC1	104	/	92	-8
CC(N)c1ccc(-c2ccccc2)cc1 (stereo unspecified)	96	/	85	2
O=C(O)c1cn(-c2cccc(Cl)c2)c(=O)c2ccccc12	/	93	/	-14
CN(C)c1cc(Nc2ccc(Cl)cc2)c2c3c(onc13)-c1ccccc1C2=O	104	111	74	-23
Cn1cc(Cl)c(C(=O)N2CCCC2c2ccc(F)cc2)n1 (stereo unspecified)	/	103	/	-13
COc1cc(OC)cc(C(=O)Nc2cc(-c3nc4ccccc4s3)ccc2OC)c1	91	104	90	-21
Cc1cc(Cc2ccc(Cl)cc2)c(=O)[nH]n1	104	107	101	-4
Cc1ccc(NC(=O)CN2CCSC2=O)cc1	121	/	96	5
C/C(=N\O)c1ccc2c(c1)Cc1ccccc1-2	124	101	60	13
Cc1cc(NC(=O)Cn2c(=O)oc3cc(S(=O)(=O)N4CCCC4)ccc32)ccc1Br	119	105	86	/
O=C(Cn1nc(-c2ccccc2)c2ccccc2c1=O)N1CCOCC1	85	98	87	-14
O=C(OCC(F)(F)C(F)F)c1ccc2ccccc2c1	102	98	97	-2
COc1ccc(CNC(=O)Cc2ccc(NC(=O)N3CCCCc4ccccc43)cc2)cc1	103	100	94	/
N/C(=N\O)c1c(Cl)cccc1Cl	94	/	85	-16
CCc1ccc(S(=O)(=O)c2nnn3c2nc(N(C)Cc2ccccc2)c2cc(Cl)ccc23)cc1	104	95	86	-14

(list continues)
The line under a structure holds: Sa growth 42C, GIV Gai3 FP, Sa growth 42C second temp, HCMV NEC inh
CC1=Nc2ccccc2N=C(NC(=O)c2ccccc2)C1c1ccc(Cl)cc1 (stereo unspecified)
    /, 106, /, 13
CC1CC(C)CN(C(=O)CSc2nc3cc(S(=O)(=O)N(C)C)ccc3o2)C1 (stereo unspecified)
    86, /, 95, -22
CCOc1nc2c(c(C)nn2-c2ccc(C)cc2)c(C)c1CCC(=O)Nc1ccc(OC)cc1
    /, 103, /, -34
COc1ccc(-c2nnn3c2nc(NCc2ccc(C)cc2)c2ccccc23)cc1
    91, 108, 88, -24
O=C(CN1N=C(c2ccccc2)CCC1=O)NC1CC1
    88, 108, 84, /
Cc1ccc(NC(=O)c2c(C)oc3ccc(O)c(CN4CCOCC4)c23)cc1
    96, 101, 84, -11
COc1nc(Nc2ccc3c(c2)OCO3)nc(OC)n1
    90, 105, 86, /
Cc1ccccc1NC(=O)c1sc2nc(-c3ccncc3)ccc2c1N
    105, 144, 79, -63
COC(=O)c1ccc(NC(=O)C2(S(=O)(=O)c3ccc(C)cc3)CC2)cc1
    102, 108, 103, 8
COc1ccc(CN2CCN(C3=NS(=O)(=O)C(c4ccc(Cl)cc4)=C3C)CC2)c(OC)c1OC
    99, 98, 99, 3
CCOc1ccc(NC(=O)c2sc3nc(-c4ccc(OC)cc4)cn3c2C)cc1
    85, 106, 88, /
CCC1CN(C(=O)Nc2cc(C)ccc2OC)c2cc(Cl)ccc2O1 (stereo unspecified)
    85, 106, 87, -2
COc1ccc2oc(C)c(C(=O)Nc3ccccc3OC)c2c1
    /, 102, /, 11
COC(=O)C1Cc2ccccc2CN1C1CC(=O)N(c2cc(C)ccc2C)C1=O (stereo unspecified)
    100, /, 93, -23
O=C1NC(=S)N/C1=C/c1cc(I)cc(I)c1O
    /, 108, /, -10
O=C(O)c1ccccc1C(=O)NCC1CCCO1 (stereo unspecified)
    109, /, 90, -22
CN1CCN(c2ccccc2NC(=O)C2c3ccccc3C(=O)N(C)C2c2cn(C)c3ccccc23)CC1 (stereo unspecified)
    93, 103, 86, -32
Cc1cccc(C(=O)N2CCc3cc(CNS(=O)(=O)c4cccs4)ccc32)c1
    77, 100, 76, /
COC(=O)C1C2CC3c4[nH]c5cc(OC)ccc5c4CCN3CC2CC(OC(=O)c2cc(OC)c(OC)c(OC)c2)C1OC (stereo unspecified)
    /, 135, /, -55
COC(=O)C1=C(C)N(Cc2cccnc2)C(=O)/C1=C\c1ccccc1C(F)(F)F
    85, 106, 77, /
Cc1ccc(SC(C)c2nc(-c3ccncc3)no2)cc1 (stereo unspecified)
    110, 106, 101, -9
CCOC(=O)c1ccc(NC(=O)Nc2cc(OC)c3nc(NC(C)=O)sc3c2)cc1
    /, 99, /, -22
O=C1CCC2CC1CCC2=O
    98, /, 95, -27
Cc1ccc(-c2nc(C=Nc3ccccc3)c(O)o2)cc1
    80, 126, 80, /
Cc1ccccc1C(=O)NC1(C(F)(F)F)N=C(c2ccccc2)N(Cc2ccccc2)C1=O (stereo unspecified)
    93, 110, 103, -5
COC(=O)C1=C(NC(=O)c2ccc(S(=O)(=O)N3CCCCC3)cc2)CCS1
    100, 106, 99, -17
CCOC(=O)c1csc(-c2ccc(Cl)cc2)n1
    /, 102, /, 5
O=c1cc(-c2ccc(F)cc2)c2c([nH]1)Oc1c(nc(-c3ccccc3)[nH]c1=O)O2
    92, 105, 101, -6
Cc1ccc(-c2ccc(C)c(N)c2C)c(C)c1N
    104, /, 91, -21
COC(=O)c1cc2sc(C)cc2n1Cc1ccc(Br)cc1F
    103, 103, 89, -42
COCCCNC(=O)C1CCN(Cc2cc3ccccc3n2Cc2ccccc2C)CC1
    106, 96, 90, /
O=c1cc(-c2ccc(O)cc2)oc2cc(O)cc(O)c12
    /, 107&109, /, 1&13&-18&-27
CC1CCN(S(=O)(=O)c2ccc(-c3nc(C#N)c(NCC4CCCO4)o3)cc2)CC1 (stereo unspecified)
    /, 96, /, -22
CN(C(=O)c1ccccc1)C1CCS(=O)(=O)C1 (stereo unspecified)
    95, 107, 71, -9
COc1ccccc1NC(=O)c1cc(S(=O)(=O)NCCC2=CCCCC2)ccc1F
    104, 99, 84, /
Cc1ccc(CNC(=S)N2CCOCC2)cc1
    97, 104, 100, -8
COc1cccc(-n2c(=O)c3c(C)c(C)sc3n(CC(=O)NCc3ccc(C)cc3)c2=O)c1
    100, 104, 92, 6
CCS(=O)(=O)c1ccc2nc(SCc3ccccc3Cl)oc2c1
    /, 101, /, -4
COc1ccc(N2CCN(CCCNC(=O)C3COc4ccc(OC)cc4C3)CC2)cc1 (stereo unspecified)
    91, 99, 92, /
O=C1CSC(c2ccccn2)N1Cc1cn2ccccc2n1 (stereo unspecified)
    104, /, 88, -26
C=CCN1C(=O)C(C(=O)Nc2ccccc2)C2c3ccccc3OC13CCCCC23 (stereo unspecified)
    114, 104, 94, 4
CC(C)OCCCn1c(=O)c2cc(Cl)ccc2n2c(SCc3ccc(F)cc3)nnc12
    /, 104, /, 19
CCN(C(=O)c1noc2c1COc1ccc(C)cc1-2)c1cccc(C)c1
    79, 105, 90, /
O=C(Nc1ccc(Oc2ccc(Cl)cc2)cc1)c1ccc2c(c1)OCCO2
    /, 100, /, -6
COc1ccc(-c2noc(CSc3nnc(C)n3-c3ccc(C)cc3)n2)cc1
    116, 103, 92, -1
CN(C)c1ccc(C2c3cccn3-c3sc4c(c3CN2C(=O)NC2CCCC2)CCCC4)cc1 (stereo unspecified)
    /, 105, /, -34
Cc1cnc(C(=O)OCc2ccc(COC(=O)c3cnc(C)cn3)cc2)cn1
    102, /, 95, -9
CCNc1nc(N)c(C(=O)c2ccc(F)cc2)s1
    112, 109, 92, -35
CCSc1nc(-c2ccccc2)nc2c1Cc1c(CO)cnc(C)c1O2
    116, 106, 97, /
CC1(C)CC2CC(C)(CN2Cc2c(O)ccc3cc(-c4ccccn4)c(=O)oc23)C1 (stereo unspecified)
    79, 126, 67, -85
S=CC1=C2NCCCN2C2CCCCC12 (stereo unspecified)
    83, /, 117, 15
CCCn1nnc2cc(S(=O)(=O)N3CCCC(C(=O)NCc4cccc(Cl)c4)C3)ccc21 (stereo unspecified)
    /, 105, /, -10
Clc1ccc2c(N3CCCCC3)ccnc2c1
    103, 104, 76, -6
Cc1nc(Oc2ccc(F)cc2)c2c(C)c(C)sc2n1
    /, 106, /, -22
COC(=O)/C(=C(/O)CSc1nnnn1-c1ccc(O)cc1)c1nc2ccccc2[nH]1
    95, /, 89, -34
CC1CCC2(CC1)Oc1ccccc1C1CC(c3ccco3)=NN12 (stereo unspecified)
    86, 124, 72, /
CCCSc1ncccc1C(=O)Nc1cc(C)no1
    95, 100, 84, -77
CC(C)OC(=O)C1CC(C)(O)C(=O)C(C(=O)OC(C)C)C1c1ccc(N(C)C)cc1 (stereo unspecified)
    99, 103, 86, -15
